LANA-nucl inh – inhibitors of KSHV LANA binding to nucleosomes. FITC-LANA1-23 / chicken nucleosome fluorescence polarization; active compounds read low. z-score (test concentration not listed). 51,000 tested, 0.3% active. AID 720717;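 active = both repeat wells score below -2 in polarization z-score versus plate sample wells, excluding overly bright wells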;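 note: 100 nL library stock added to about 30 µL; numbers are from one replicate; some results filed as inactive read as strong as hits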
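Test system: purified chicken nucleosomes with FITC-labelled LANA N-terminal peptide (1-23); Input: 240 nM purified chicken nucleosomes (480 nM peptide binding sites), final; Medium: TEN-BT buffer, pH 7.5; Timing: 10–45 min, room temperature; Technique: fluorescence polarization, 480 nm excitation, 535 nm parallel and perpendicular emission; Replication: duplicates.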
Ab BasE inh – blocks the Acinetobacter baumannii siderophore enzyme BasE. purified BasE, fluorescence polarization binding displacement. inhibition, % (concentration not given with the values). 84,000 tested, 0.1% active;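 active = both replicates above 25% with normal brightness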;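 note: 0% = negative plate control signal and 100% = positive plate control signal; stock transfer was 100 nL into about 30 µL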
Numbers without * were called inactive; · = no result given; & = joins results of further samples.

Sample of the layout:
SMILES	LANA-nucl inh	Ab BasE inh
C=CCN1CCN(C(c2ccccc2)c2nnnn2CCC(C)C)CC1 (configuration not stated)	0.33	-1.7
COC(CN=Cc1c(O)n(C)c(=O)n(C)c1=O)OC	·	1.8
O=C1CCC/C(=N\NC(=O)CCCOc2ccc(Cl)cc2Cl)C1	·	1.4
COc1cccc(-n2cc(C(=O)N3CCN(C4CCCCC4)CC3)c3ccccc3c2=O)c1	-0.32	-0.3

The whole of this part, from the start:
SMILES	LANA-nucl inh	Ab BasE inh
C=CCN1CCN(C(c2ccccc2)c2nnnn2CCC(C)C)CC1 (configuration not stated)	0.33	-1.7
COC(CN=Cc1c(O)n(C)c(=O)n(C)c1=O)OC	·	1.8
O=C1CCC/C(=N\NC(=O)CCCOc2ccc(Cl)cc2Cl)C1	·	1.4
COc1cccc(-n2cc(C(=O)N3CCN(C4CCCCC4)CC3)c3ccccc3c2=O)c1	-0.32	-0.3
CCOc1cc(C2CC(=O)NC3=C2C(=O)C(C(=O)OC)C(C)C3)cc(Br)c1O (configuration not stated)	0.9	-3.6
CCN1C(=O)c2cccc3cccc1c23	·	-0.3
COc1ccccc1C(C)NCc1nc2ccc(Cl)cc2n1CCO (configuration not stated)	·	0.3
CCc1c(C)[nH]c2ccc(C(=O)O)cc12	0.4	-0.3
CCOc1ccc(CCNC(=O)c2nnc(-c3cccnc3)o2)cc1OCC	0.31	3.4
CC(=O)N(Cc1ccc2c(c1)OCO2)c1nnc(C)s1	2	-5.8
O=C(CN1CCC(n2cnc3cc(F)ccc32)CC1)Nc1ccccc1Br	-0.005	0.9
Cc1cc(C(=O)Cn2nnc(-c3cccc(F)c3)n2)c(C)n1C1CCS(=O)(=O)C1 (configuration not stated)	·	-4.1
CCCn1c(Sc2nnnn2-c2ccccc2)nc2ccccc2c1=O	·	-1.2
COC(=O)CC(c1ccc(O)cc1)N1Cc2ccccc2C1=O (configuration not stated)	0.94	·
O=C(O)c1ccc(OCc2cn3ccccc3n2)cc1	·	0.9
O=C(NCCO)c1c(Cl)cccc1Cl	2.4	-4.3
CNc1nc(OCC#N)nc(N2CCCCC2)n1	-0.011	3.8
O=C(Nc1c2c(nn1-c1ccc(Cl)cc1)CSC2)c1ccc(C(=O)c2ccccc2)cc1	·	3.1
O=C(CCN1C(=O)NC2(CCCC2)C1=O)Nc1nc(-c2ccccc2)cs1	·	-0.3
CCn1c(C(C)NC=O)nc2ccccc21 (configuration not stated)	-0.36	3.8
CCOc1ccc(NC(=O)C2CCCN(S(=O)(=O)c3c(C)[nH]c(=O)[nH]c3=O)C2)cc1 (configuration not stated)	0.16	-1.7
CN(C)CCOC(=O)c1ccc2[nH]c3c(c2c1)CSCC3	·	-17
Cc1ccc(/C=C(\C#N)C(=O)NC2CCCCCC2)o1	-0.27	-1.3
O=C1CCCN1c1ccc(S(=O)(=O)Nc2ccc(Cc3ccncc3)cc2)cc1	-0.67	0.8
O=c1sc(Nc2ccccc2)nc2ccccc12	0.41	0.8
Cc1ccc(N2NC(=O)/C(=C/C=C/c3ccco3)C2=O)cc1C	·	0.5
CSc1ccccc1C(=O)NCCN1CCOCC1	-0.48	2.4
CC(C)(C)NC(=O)N1CCN(c2nc(-c3ccccc3)ns2)CC1	·	0.0
COc1ccc(-n2c(C)cc(C(=O)COC(=O)Cn3cnc4ccccc43)c2C)cc1	·	8.8
Cc1ccc(S(=O)(=O)N(C)/N=C/c2cccc(Br)c2)cc1	·	-1.2

A draw from above in order of SMILES length, largest number first:
SMILES	LANA-nucl inh	Ab BasE inh
CCOc1ccc(NC(=O)C2CCCN(S(=O)(=O)c3c(C)[nH]c(=O)[nH]c3=O)C2)cc1 (configuration not stated)	0.16	-1.7
COc1ccc(-n2c(C)cc(C(=O)COC(=O)Cn3cnc4ccccc43)c2C)cc1	·	8.8
Cc1ccc(N2NC(=O)/C(=C/C=C/c3ccco3)C2=O)cc1C	·	0.5
CN(C)CCOC(=O)c1ccc2[nH]c3c(c2c1)CSCC3	·	-17
Cc1ccc(/C=C(\C#N)C(=O)NC2CCCCCC2)o1	-0.27	-1.3
O=c1sc(Nc2ccccc2)nc2ccccc12	0.41	0.8
CSc1ccccc1C(=O)NCCN1CCOCC1	-0.48	2.4

Continuation:
SMILES	LANA-nucl inh	Ab BasE inh
Clc1ncc(CN2CCCc3ccccc32)s1	0.41	·
CS(=O)(=O)N(CC(=O)Nc1ccc(S(=O)(=O)N2CCCC2)cc1)c1ccc2c(c1)OCO2	0.21	-0.9
c1ccc(N=c2scc(-c3cccs3)n2-c2ccccc2)cc1	·	-1.7
Cc1ccc(C(CN2CCOCC2)c2nc(-c3ccccc3)nn(CN3CCOCC3)c2=O)cc1 (configuration not stated)	-0.57	1.5
Cc1cc(NC(=O)CSCc2ccco2)no1	-0.21	-1.2
O=C(Nc1ccccc1)N(O)c1ccc(Cl)cc1	·	2.8
O=C(c1ccccc1)c1c(CS(=O)(=O)c2ccc(C(F)(F)F)cn2)[nH]n(-c2ccccc2)c1=O	·	-1.4
CN1c2ccccc2N(Cc2ccccc2)C(=O)C1(C)C	-0.0085	0.5
CN(C)CC#Cc1cncc(C(=O)NN)c1	·	-0.6
Nc1ccc2oc3ccccc3c2c1	·	0.0
CC1CC(C)CN(CCCNc2cnnc3c(Cl)cccc23)C1 (configuration not stated)	·	-13
Cc1cccc(Cn2nc(C)c(NC(=O)c3ccncc3)c2C)c1	-0.15	0.7
CCNc1nc(NC2CC2)nc(N(C)C#N)n1	-0.24	2.0
Cc1ccc2cccc(OCC(=O)N3C(C)CCCC3C)c2n1 (configuration not stated)	·	0.1
O=C(NC1CCCC1)c1ccc2ncsc2c1	·	-0.2
CON(S(=O)(=O)c1ccccc1)S(=O)(=O)c1ccccc1	-0.55	-1.7
CN(CC(=O)NC1CCSc2ccccc21)S(=O)(=O)c1ccc(F)cc1 (configuration not stated)	·	-0.8
C=CCSc1ncc2c(=S)[nH]c(=S)[nH]c2n1	·	1.9
O=c1c2nnn(-c3cccc(Cl)c3)c2ncn1C/C=C/c1ccccc1	-0.52	0.7
CC(C)CCN1CSC2=C(C#N)C(c3ccc(F)cc3)CC(=O)N2C1 (configuration not stated)	-0.17	0.3
COCc1nnc(NC(=O)c2ccc(S(=O)(=O)N(C)C3CCCCC3)cc2)o1	0.27	-0.1
O=C(COc1ccc(-c2nnc(N3CCCCC3)c3ccccc23)cc1)N1CCCCC1	·	-6.7
CCN(CC)C(=O)Cn1nc(C)c(S(=O)(=O)N2CCCCC2)c1C	·	-4.2
CCN1C(=O)/C(=C\c2ccc(C(C)C)cc2)SC1=S	·	2.0
COC(=O)c1sccc1NC(=O)COCc1cc(-c2cccs2)on1	2.4	-3.2
CCCC(=O)n1nc(NCc2ccccc2)nc1NCc1ccccc1	2.4	-0.2
CCOC(=O)CCc1ccc(OCc2ccccc2)c(I)c1	·	3.3
Cc1ccc(NC(=O)CSCc2c(C#N)c(C)nn2-c2ccccc2)c(Cl)c1	·	1.5
CNC(=O)N(Cc1cccnc1)Cc1cccc(Cl)c1Cl	-0.45	-0.2
NC(=S)N/N=C/CCn1c(=S)sc2ccccc21	-0.96	0.2
NC(N)=NS(=O)(=O)c1ccc(N)cc1	-0.007&1.6&-0.26	-2.5&1.6
Cc1nnc(SCC(=O)NCC2CCCCC2)n(N)c1=O	·	2.9
CN(C)c1ccc(C(=O)OCC(=O)C23CC4CC(CC(C4)C2)C3)cc1	·	0.5
C/C(=N\NC(=O)c1ccc(Cl)cc1Cl)c1ccc(C)o1	·	0.5
CCn1cc(S(=O)(=O)Nc2cc(C(C)(C)C)on2)cn1	0.65	1.1
CN(C(=O)c1cnccn1)c1c(N)n(Cc2ccccc2)c(=O)[nH]c1=O	·	0.3
CCCCN1C(=O)N(c2nnc(C(C)(C)C)s2)C(O)C1c1ccc(C)cc1 (configuration not stated)	0.32	-1.1
Cc1cc(NC(=O)/C(C#N)=C/c2ccc(-c3cccc(C(F)(F)F)c3)o2)n(-c2ccccc2)n1	·	-8.8
CC(C)(C)OC(=O)N1CCc2nc(Nc3ccccc3)ncc2C1	0.27	1.2
N#Cc1c(NC(=O)c2cnn3c(C(F)(F)F)cc(-c4ccco4)nc23)sc2c1CCCC2	-0.18	-1.7
CC(C)(C)n1nc2c(c1N)CSC2	-0.29	-0.6
C=C(c1ccccc1)c1ccc(N(C)C)cc1	0.23	0.4
COc1cc(C)c(NS(C)(=O)=O)cc1C(C)C	-0.92	0.3
O=C(CCNc1n[nH]c(=O)[nH]c1=O)N1CCCCC1	0.12	0.0
Nc1nc(N)nc(CN2CCCC2c2nc3ccccc3s2)n1 (configuration not stated)	·	2.4
CCC1(CC)Cc2ccccc2-c2nc(NN)n(Cc3ccccc3)c(=O)c21	0.38	0.6
COc1ccc(-n2nc3c(c2NC(C)=O)CSC3)cc1	-0.58	1.6
O=S(=O)(c1ccccc1)N1CCN(S(=O)(=O)c2ccc(Cl)cc2)CC1	0.74	1.9
CC(=O)Oc1ccccc1-c1nc(C)no1	·	2.1
Nc1ccccc1C(=O)NCCc1ccccc1	·	1.9

Continued.
SMILES	LANA-nucl inh	Ab BasE inh
CSc1c(C#N)c(-c2cccs2)nn1CNC(=O)Nc1ccccc1C(F)(F)F	·	-0.7
CCC(CC)=NNC(=O)c1ccc(Cl)cc1	·	-3.2
Cc1onc(-c2ccccc2)c1N1C(=O)CCN(C(C)C)C1=O	-1.2	-1.5
CC(CNC(=O)c1nnc(-c2ccc3c(c2)OCO3)o1)c1ccccc1 (configuration not stated)	2.3	-1.1
CCc1nnc(NC(=O)c2ccc(S(=O)(=O)N3CC(C)CC(C)C3)cc2)o1 (configuration not stated)	0.86	-1.4
COc1ccc(-n2cc(C(=O)N(C)Cc3ccco3)c3ccccc3c2=O)cc1	-0.5	0.9
O=c1cc(CSc2nnc(-c3cccc(S(=O)(=O)N4CCOCC4)c3)n2C2CCCCCC2)nc2sccn12	·	-0.1
CCn1cc(S(=O)(=O)N2CCOCC2)cn1	1.6	-4.4
CCOC(=O)c1c(C)csc1NC=C(C#N)C#N	-4.8	1.8
COc1ccc(/C=C/C(=O)N2CC(C)OC(C)C2)cc1OC (configuration not stated)	-0.45	-0.1

By substructure, the compounds so far containing a COOH group (2)
SMILES	LANA-nucl inh	Ab BasE inh
CCc1c(C)[nH]c2ccc(C(=O)O)cc12	0.4	-0.3
O=C(O)c1ccc(OCc2cn3ccccc3n2)cc1	·	0.9

Next part:
SMILES	LANA-nucl inh	Ab BasE inh
O=C1CCCc2cc(S(=O)(=O)N3CCCC(C(=O)NCCc4ccccc4)C3)ccc2N1 (configuration not stated)	·	-1.6
CC(C)N1C(=O)C2(N=C(N)Nc3nc4ccccc4n32)c2ccccc21 (configuration not stated)	·	-0.8
CN(C)/C=C(\C#N)c1nc2ccccc2s1	6.4	-14
OCCN(Cc1ccccc1)Cc1ccccc1C(F)(F)F	2.7	-2.5
COc1ccc(NC(=S)N(C)Cc2c(C)nn(C)c2C)c(OC)c1	-1.8	2.3
CCS(=O)(=O)c1nc2ccccc2n1CC(N)=O	0.049	3.8
Cc1ccc(N(C)C(=O)c2cc(S(=O)(=O)N3CCCCC3)c[nH]2)cc1	-0.46	0.1
CCc1ccc(CN2CCC(C(=O)N(C)CCc3ccc(OC)c(OC)c3)CC2)cc1	0.66	-2.7
COc1ccc(-n2nc3cc(C)c(NC(=O)c4ccc(-c5cccc(Cl)c5C)o4)cc3n2)cc1	-0.21	3.4
C[N+]1(Cc2ccco2)Cc2ccccc2C1	·	0.4
O=C(C1CCCN(S(=O)(=O)c2ccccc2)C1)N1CCCCC1 (configuration not stated)	·	-0.2
Cc1c2oc3c(c2cc2c4c(c(=O)oc12)CCCC4)CCCC3	0.5	2.1
CCOC(=O)C1CCN(C(=O)c2ccccc2F)CC1	0.68	-0.3
CC(=O)Nc1ccc(NC(=O)C(C)OC(=O)C2CC(=O)N(CCc3ccccc3)C2)cc1 (configuration not stated)	·	0.9
c1ccc(-n2nc3ccc4nonc4c3n2)cc1	-0.36	3.4
COc1ccc(S(=O)(=O)NCC(=O)N(C)Cc2cccc(F)c2)cc1	·	0.2
O=C(OCCn1ncc2ccccc2c1=O)c1ccc(F)cc1Cl	·	0.6
O=C(NCCSc1c[nH]c2ccccc12)C1CC1	2.3	-3.1
CCC(Sc1nc2sc(C(=O)OC)c(C)c2c(=O)n1N)C(=O)NC1CCCC1 (configuration not stated)	-0.07	1.6
O=C1S/C(=C/c2ccco2)C(=S)N1c1ccccc1	-0.31	-1.8
O=C(CSc1nnc(-c2ccncc2)o1)Oc1ccccc1	0.58	-0.5
N#CCn1c(-c2ccc(Cl)cc2)noc1=O	1.9	-1.7
Oc1ccc(Br)cc1C=NCC12CCC3CC(CC(C3)C1)C2	·	2.1
CCCN1Cc2cccc(C(=O)NC(C)c3ccc4c(c3)OCCO4)c2C1=O (configuration not stated)	-0.37	-0.4
Cc1ccccc1/C=N/NC(=O)c1ccc(-n2cnnn2)cc1	·	-2.0
Cc1ccc(NC(=O)N(C)C)cc1	-0.22	2.9
O=C(NCCCN1CCC(Cc2ccccc2)CC1)c1nnc(-c2cccc(Cl)c2)o1	-0.36	-0.9
CCOC(=O)c1ccc(N2CC(O)=C(c3nc4ccccc4s3)C2=N)cc1	0.03	2.9
CCOc1ccccc1N(C)C(=O)Cc1c(C(=O)O)c(C)cn1C	0.21	2.0
CCOC(=O)c1oc2ccc3c(c2c1C)C(=O)CC1(CCC(C)CC1)O3 (configuration not stated)	1	0.1
CC(C)OCCCNc1ncnc2ccccc12	-0.54	3.6
O=C(c1cc2c(s1)CCCC2)N1CCCC1c1nc2ccccc2s1 (configuration not stated)	·	0.8
CCOC(=O)c1c(C)n(C(=O)c2ccco2)c(=O)n1C(=O)c1ccco1	-0.83	1.5

Bioassay records (PubChem)

Not all compounds are listed; count on the stated rates, not on these rows.
